Vaccinia Venus: vaccinia inhibition (Venus reporter); Vaccinia virus Venus reporter expression, fluorescence; 330,000 tested, 0.46% active; Potency, µM (highest dose often 36.5 µM), inactives show at the highest dose activity change, negative = inhibition, actives largely listed as inhibitors; active means well fitted inhibition curve with a large enough effect; inconclusive means small, poorly fitted or top-dose-only effect; inactive means no such curve, though single readings can be large or run the other way; tested in A549 cells; further: nearly all actives have a fitted effect of over 30% in size; inactives centre near -10
VACV mCherry inh: vaccinia inhibition (mCherry reporter); Potency, µM (doses to about 36.5 µM), inactives show at the top dose activity change, negative = inhibition, hits mostly inhibitors; AID 720579; 310,000 tested, 0.63% active; Vaccinia virus mCherry reporter infection, fluorescence; about a quarter of the inactives have no number; active = well fitted inhibition curve with a large enough effect; inconclusive = small, poorly fitted or top-dose-only effect; inactive = no such curve, though single readings can be large or run the other way; tested in A549 cells; further: nearly all actives have a fitted effect of over 35% in size; inactives centre near -10
Starred values were filed as active, the others as inactive; i = inactive; ? = inconclusive; / = no result given; & = joins results of further samples; [ ] = another dose, or the depositor's remark. On the % scale 0 is the no-effect control and ±100 the full control effect; potency means the concentration at half of the fitted maximal effect. Hits appear at their usual frequency; 0.86% or so of the library scored in one or more.

The opening 2 compounds (preview)
SMILES	Vaccinia Venus	VACV mCherry inh
CCN(CC)S(=O)(=O)c1cccc(C(=O)N/N=C/c2ccc(O)c(O)c2O)c1	-7%	i
C/C(=N\Nc1cccc([N+](=O)[O-])c1)c1ccccc1O	-24%	-23%

All compounds of this part, from the first entry:
SMILES	Vaccinia Venus	VACV mCherry inh
CCN(CC)S(=O)(=O)c1cccc(C(=O)N/N=C/c2ccc(O)c(O)c2O)c1	-7%	i
C/C(=N\Nc1cccc([N+](=O)[O-])c1)c1ccccc1O	-24%	-23%
COc1ccccc1C(=O)N/N=C/c1cnc2ccccc2n1	-8%	-11%
CCc1ccc(/C=C(\C#N)C(=O)NC2CCS(=O)(=O)C2)cc1 (stereo not drawn)	-19%	i
Cc1ccc(N2CC(NC(=O)c3ccc(S(=O)(=O)N4CCCC4)cc3)CC2=O)cc1C (stereo not drawn)	-1%[7.34 µM]	1%[7.34 µM]
CCOC(=O)c1c(C)oc2ccc(O)c(CN3CCCCC3)c12	-21%	-24%
COc1ccc(N2C(=O)CC(N(CCc3ccc(S(N)(=O)=O)cc3)C(=S)Nc3ccccc3)C2=O)cc1 (stereo not drawn)	-28%	-20%
O=C(CCCc1c[nH]c2ccccc12)NCCc1c[nH]c2ccccc12	-13%	-19%
CCCCCCCCN1C(=O)[C@H](CC(=O)NCc2ccccc2)C[C@@]2(C(=O)OCC)CCCC=C12	-20%	-8%
COc1ccccc1-c1ccc2c(c1)C(C)(Cc1ccc(F)c(Cl)c1)C(=O)N2 (stereo not drawn)	-27%	-24%
CC(C)(C)NC(=S)NNC(=O)[C@H]1C[C@@H]1c1ccccc1	-2%	i
CCc1noc(C)c1C(=O)Nc1nc(-c2ccc(OC)cc2)cs1	-6%	-11%
Cc1ccc(NC(=O)C(C)n2nnc3sc4c(c3c2=O)CCCC4)cc1Cl (stereo not drawn)	3%	-1%
Cc1ccc(S(=O)(=O)N2CCC(=O)N([C@H](COCc3cccc(C(F)(F)F)c3)C(C)C)CC2)cc1	-7%	-7%
O=C(CCc1ccccc1)N1Cc2cc(N3CCOCC3)ccc2-n2nncc2C1	-5%	7%
Cc1c(O)nc(SCC(=O)Nc2nccs2)n(-c2ccccc2F)c1=O	-6%	-17%
O=C(Cc1ccc(Br)cc1)NCCCn1ccnc1	-14%	i
CC1=C(O)C(=O)C(C2=C(O)C(=O)C(C)=C(O)C2=O)=C(O)C1=O	1%	-3%
Cc1ccc(C2C(C#N)=C(N)Oc3cc4c(cc32)OCO4)cc1 (stereo not drawn)	-28%	-12%
C#Cc1cccc(C(=O)N(Cc2cccnc2)CC2CCCN(C3CCCCC3)C2)c1 (stereo not drawn)	-2%	i
CC1CC(C)(C)CC2(C1)NC(=O)N(CC(=O)N1CCN(S(=O)(=O)c3cccc(F)c3)CC1)C2=O (stereo not drawn)	-16%	i
CCCCCc1ccc(-c2cn(Cc3ccc4c(c3)C(=O)c3ccccc3C4=O)nn2)cc1	-13%	-17%
O=C1CCC/C1=C\c1ccccc1	-13%	i
CCCC(=O)OCC(=O)Nc1ccccc1Sc1ccccc1	-4%	-25%
COc1ccc(S(=O)(=O)N2CCC(C(=O)N3CCOCC3)CC2)cc1OC	-14%	i
CC(=O)OC(COc1cccc(C)c1)Cn1cnc2ccccc21 (stereo not drawn)	-8%	i
CCc1nc2ccc(C(=O)NCCOc3ccc(OC)cc3)cn2c1N(CC)Cc1ccc(OC)c(OC)c1	?	-5%
CC(C(=O)Nc1cccc([N+](=O)[O-])c1)N1C(=O)NC2(CCCC2)C1=O (stereo not drawn)	4%	14%
Cc1cccc(C(=O)OCC(=O)N2CCC(c3ccccc3)=N2)c1O	-12%	-13%
CC(O)(c1cccnc1)c1nc(-c2cccc3cccnc23)cs1 (stereo not drawn)	-2%	i
O=C(Nn1c(-c2ccc(Br)cc2)nc2ccccc2c1=O)c1ccc([N+](=O)[O-])cc1	-15%	0%
CCOC(=O)c1cccc(NC(=O)CCSCCc2ccccn2)c1	-7%	-7%
COc1ccc(Nc2nc(N)c(C(=O)c3ccc(OC)cc3)s2)cc1	-25%	1.8µM*
C=CCNC(=O)c1ccc(S(=O)(=O)CC)c(Cl)c1Cl	-7%	-12%
COc1cc(NC2=CC(=O)CC(C)(C)C2)cc(OC)c1OC	-4%	-1%
CCCN1CCC(=O)N([C@H](CSc2ccc(OC)cc2)CC(C)C)CC1	-12%	3%
CC(=O)NC1C(=O)N=C(SCC(=O)NCc2ccccc2)NC1=O (stereo not drawn)	0%	-11%
CC1(C)Cc2c(C#N)c(N)n(-c3ccccc3)c(=S)c2CO1	1%	-9%
C[C@H](CO)N1C[C@H](C)[C@@H](CN(C)Cc2ccc(C(=O)Nc3ccccc3N)cc2)Oc2c(NC(=O)C3CCCCC3)cccc2C1=O	-21%	i
O=C(NCc1ccccn1)C1CCC(CNS(=O)(=O)c2cccc3nsnc23)CC1 (stereo not drawn)	-3%[7.34 µM]	-4%[7.34 µM]

Continued, overlapping the part above by two compounds.
SMILES	Vaccinia Venus	VACV mCherry inh
C[C@H](CO)N1C[C@H](C)[C@@H](CN(C)Cc2ccc(C(=O)Nc3ccccc3N)cc2)Oc2c(NC(=O)C3CCCCC3)cccc2C1=O	-21%	i
O=C(NCc1ccccn1)C1CCC(CNS(=O)(=O)c2cccc3nsnc23)CC1 (stereo not drawn)	-3%[7.34 µM]	-4%[7.34 µM]
Cc1onc(-c2ccccc2Cl)c1C(=O)Nc1ccc(CN2CCCC2)cc1	-11%	/
FC(F)(F)c1ccc(NC2=NCCC2)cc1	-4%	-12%
NS(=O)(=O)c1ccc(CNC(=O)c2cc(-c3cccnc3)nc3ccc(Cl)cc23)cc1	-15%	-5%
COc1cc(NS(=O)(=O)c2ccc(N)cc2)nc(OC)n1	-6%&-10%	i
Cc1nc2sc3c(c2c(=O)o1)CCCC3	3%	/
CCN(CC)c1ccc(-c2nc(-c3ccccc3C)no2)cc1[N+](=O)[O-]	4%	-5%
Cc1ccc(S(=O)(=O)CCC(=O)OCC(=O)NCC(=O)Nc2cccc(C)c2C)cc1	-14%	-21%
Cc1ccc(SCCNS(C)(=O)=O)cc1	-16%	i
NS(=O)(=O)c1cc(C(=O)O)cc(N2CCCC2)c1Oc1ccccc1	-7%	-18%
O=C1C2CCCN2C(c2cccc(F)c2)N1c1cccc(Cl)c1 (stereo not drawn)	-2%	-7%
CN1CCCN(C(=O)c2ccccc2Cl)CC1	-6%	-13%
CC(C)C[C@H]1CNC(=O)C(=O)N1CC1CCN(CC2CCC(C)CC2)CC1 (stereo partly drawn)	-2%	20%
COc1ccc(C(=O)NC2=C(C#N)CCC2)cc1OC	0%	-4%
CCOC(=O)CSc1ccc2ccccc2n1	-15%	?
Cn1cnc(S(=O)(=O)N2CCc3ccccc32)c1	-16%	i
COc1cc(/C=C/C(=O)N2CCCC2)cc(OC)c1OC	-4%	-14%
CSc1nsc(SCC(=O)Nc2nc3ccccc3s2)n1	-5%	i
Cc1cc(C)cc(Nc2ncc3c(n2)CCCC3=O)c1	-15%	/
O=C(O)CC1(CC(=O)Nc2cccc(C(F)(F)F)c2)CCCC1	-15%	-1%
COc1ccccc1C(=O)N/N=C(\C)CC(=O)Nc1ccc(Cl)cn1	-3%[7.34 µM]	i[7.34 µM]
CN(C)CCCN(C(=O)CCS(=O)(=O)c1ccccc1)c1nc2cc3c(cc2s1)OCO3	10µM*	?
CC(=Nc1cccc(O)c1)c1sc2ccccc2c1O	-4%	i
COC(=O)c1sccc1S(=O)(=O)N(CC(=O)NCc1ccc(F)cc1)c1ccccc1	10%	-2%
Cc1cccc(C)c1Nc1ncnc(N)c1[N+](=O)[O-]	-3%	-10%
COc1ccc(CC2(CO)CCN(Cc3cnn(C)c3)CC2)cc1	-13%	-13%
CC(=O)N1CCN(S(=O)(=O)c2cccc(C(=O)NC3CCCC(C)C3C)c2)CC1 (stereo not drawn)	-12%	i
CCc1cccc2c(C(=O)COC(=O)c3ccccc3)c[nH]c12	-7%	-6%
COc1ccc(C(=O)Nc2nnc(SCC(=O)NC3CC3)s2)cc1	-8%	i
CCC(Cc1ccccc1)NS(=O)(=O)c1ccc2c(c1)NC(=O)CO2 (stereo not drawn)	-15%	?
CCOC(=O)Cc1csc(NC(=O)CN2CCN(CC)CC2)n1	-16%	i
OCC1(CO)CC2(C1)CC(CO)(CO)C2	-13%	-14%
CCN(CC)c1nc2ccccc2c(N)c1-c1ccccc1	?	/
COc1cccc2[nH]c(C(=O)NCc3ccccc3)cc12	-26%	-16%
O=C(CSc1oc(-c2ccccc2)nc1S(=O)(=O)c1ccc(Cl)cc1)Nc1ccc(F)cc1	?	?
CS(=O)(=O)N1Cc2ccccc2CC1C(=O)Nc1ccccc1C(N)=O (stereo not drawn)	-11%	-14%
CC(C)c1ccc(N(CC(=O)NCCc2ccccc2)C(=O)c2csnn2)cc1	5%	-3%
O=C1NC(Cc2ccccc2)c2nc3cc(F)c(F)cc3c(=O)n2-c2cc3ccccc3cc21 (stereo not drawn)	-25%	i
C=CCn1c(NC(=O)CC)c(C(=O)OCC)sc1=S	-5%	i
Cc1ccc([C@@H]2CC=C(C(=O)O)[C@H](c3ccc(F)cc3)N2S(=O)(=O)c2ccccc2C)cc1	-6%	-15%
COc1ccccc1C(=O)NCCC(=O)NCC(c1ccco1)N1CCCC1 (stereo not drawn)	-9%	-13%
CN(C(=O)CSc1nnc(-c2ccco2)n1N)C1CCCCC1	-8%	i
CCCn1cc(SCC(=O)NC2CCCC2)c2ccccc21	-15%	-8%
O=C1CS/C(=N\N=C\c2ccco2)N1c1ccccc1	0%	?
CCN(c1ccccc1)S(=O)(=O)c1ccc(Cl)c(C(=O)NCc2ccco2)c1	-6%	i
CCOc1cc(-c2ccc(OC(=O)c3ccccc3)c(OC)c2)cc(=O)c2c(C)oc(C)c12	8%	-1%
O=C(NCCc1ccccc1)c1ccccc1F	-7%	-14%
O=c1c2c(n3nnnc3n1Cc1ccccc1)-c1ccccc1CC21CCCC1	-11%	-22%
CNc1ccc(/C=C(\C#N)C(=O)Nc2ccccn2)cc1[N+](=O)[O-]	-14%	-13%
COc1ccc(-n2c3c(cc(-c4nc(-c5ccc(Cl)cc5)cs4)c2=O)C(=O)CC(C)(C)C3)cc1	1%	-3%
COc1ccc(NC(=O)CN(C)C(=O)CN2C(=O)NC3(CCCC3)C2=O)cc1	-14%	-4%

Exported as a markdown table: part of the list above
| SMILES | Vaccinia Venus | VACV mCherry inh |
| --- | --- | --- |
| COc1ccc(C(=O)Nc2nnc(SCC(=O)NC3CC3)s2)cc1 | -8% | i |
| Cc1ccc(NC(=O)C(C)n2nnc3sc4c(c3c2=O)CCCC4)cc1Cl (stereo not drawn) | 3% | -1% |

The list continues:
SMILES	Vaccinia Venus	VACV mCherry inh
COC(=O)C(C)Sc1nnc(Cc2cc(=O)[nH]c(=O)[nH]2)n1-c1cccc(OC)c1 (stereo not drawn)	0%	47%[activator]
COc1ccc(N2CCN(C(=O)CCCSc3nc4ccccc4[nH]3)CC2)cc1	-9%	-16%
CC(C)(C)C(=O)Nc1nc2c(s1)COc1ccccc1-2	?	-30%
Cc1ccc(NC(=O)O/N=C/c2ccc(Br)cc2)cc1	-7%	i
O=C1NC(c2ccccc2)=C(c2ccccc2)C1=O	-4%	i
OCC[C@H]1C[C@@H](O)[C@H](O)[C@]2(Cc3ccccc3CCO2)O1	5%	i
CCn1c(=O)c2c(nc3n2CCS3)n(C)c1=O	-2%	-7%
COc1cc([C@H]2[C@@H]3CCCC[C@]3(O)CCN2Cc2ccccc2F)ccc1O	-11%	-17%
COC(=O)[C@H](CC(C)C)NS(=O)(=O)c1ccccc1	-4%	i
Cc1ccc(S(=O)(=O)Oc2ccc(/C=N/NC(=O)c3c(Cl)cnn3C)cc2)cc1	-6%	-15%

Single records (already shown):
COc1ccc(N2CCN(C(=O)CCCSc3nc4ccccc4[nH]3)CC2)cc1 in the list: Vaccinia Venus = -9%; VACV mCherry inh = -16%
O=C1NC(c2ccccc2)=C(c2ccccc2)C1=O in the list: Vaccinia Venus = -4%; VACV mCherry inh = i

Other compounds.
SMILES	Vaccinia Venus	VACV mCherry inh
CCOc1ccc(C(=O)Nc2ccc(S(=O)(=O)N3CCOCC3)cc2)cc1OCC	-22%	/
O=C(COC(=O)c1ccccc1Cl)Nc1cccc(S(=O)(=O)N2CCCCC2)c1	-8%	i
Oc1ccccc1C=NCC(O)c1ccccc1 (stereo not drawn)	-3%	-8%
COc1ccc(Cl)c2sc(NC(=O)c3ccc(S(=O)(=O)N4CCCC4)cc3)nc12	-10%	-9%
FC(F)(F)c1cc(CCN2CCNC[C@@H]2c2ccccc2)cc(C(F)(F)F)c1	?	-10%
CCCCN(CC)CCNC(=O)c1cc2c(=O)n(C)c3ccccc3c2s1	-8%	?
CN(C)/C=N/c1sc2c(c1C#N)CCC2	-6%	-10%
COc1cc(C(=O)Nc2sc(C)c(C)c2C(=O)O)cc(OC)c1OC	-8%	i
COc1ccccc1N1CCN(Cc2nc(-c3cc(OC)c(OC)c(OC)c3)no2)CC1	-14%	-16%
CCOc1ccc(CCNC(=O)COC(=O)c2cccc(N(C)C)c2)cc1OCC	-17%	i
Cc1ccc(C(CC(=O)O)NC(=O)c2ccc(S(=O)(=O)N3CCCC3)cc2)cc1 (stereo not drawn)	-4%	i
N/C(=N\OC(=O)CCc1ccccc1)c1cccc(Br)c1	-2%	-6%
O=C(CCCCCN1C(=O)[C@@H]2Cc3ccccc3CN2C1=O)N[C@@H](Cc1ccc(O)cc1)C(=O)O	3%	5%

Screening results: PubChem BioAssay, National Center for Advancing Translational Sciences (NCATS)
